Mtb growth – M. tuberculosis H37Rv growth inhibitors, H37Rv strain (AID 1626) | M. tuberculosis H37Rv growth inhibition; higher % means a stronger effect | actives 0.95% (n = 220,000) | inhibition, % at 10 µM, or IC50 in µM where a hit was titrated;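 active = confirmed in a dose series; inconclusive = inhibition above 80% but not taken into the dose series; inactive = below 80% or under 30% at every dose of the series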;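 also: bacteria incubated seven days before Alamar blue readout; 0% = bacteria only wells and 100% = bacteria with antibiotic wells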
YopH PTP inh – YopH (Yersinia) phosphatase inhibition; inhibition, %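 (about 10 µM by stock and volumes)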; fluorescence Ex485/Em525; actives 0.16% (n = 140,000);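 active = inhibition of 50% or more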;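 also: controls were vehicle for no effect and minimum signal wells for full effect; inactives centre near -20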
Arbovirus anti – arbovirus infection inhibition | inhibition, % at 10 µM | arbovirus infection cell-based antiviral screen | actives 0.37% (n = 200,000);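 active = inhibition from about 30%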;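 also: bluetongue infection of BSR cells; cell survival read as ATP light after 72 h; 0% = infected wells without compound and 100% = uninfected wells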
Mtb bLac sens – beta-lactam sensitization of Mtb H37Rv; M. tuberculosis H37Rv growth with meropenem, percent inhibition; hits of this screen are not shown here; inhibition, % at 25 µM; actives 0.27% (n = 330,000); AID 434955;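 active = about 74% or more and at least 40 points above the plate without the antibiotic, then above 30% in a dose series; inconclusive = first-round hits that could not be retested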;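 also: growth measured after seven days incubation then overnight dye step; 0% = bacteria only wells and 100% = bacteria with antibiotic; twin plates without the antibiotic show which effects depend on it; some results filed as inactive read as strong as hits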
RecA splice inh – inhibitors of M. tuberculosis RecA intein splicing; P9WHJ3; actives 0.75% (n = 290,000); inhibition, %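 (about 9 µM by stock and volumes)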; cell-free RecA intein splicing, fluorescence; in the data active = inhibition above about 30%; inconclusive = no clear call, values can overlap the other calls;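 also: 0% = vehicle wells and 100% = reference inhibitor control wells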
Target sequence (P9WHJ3 whole entry, looked up, canonical isoform): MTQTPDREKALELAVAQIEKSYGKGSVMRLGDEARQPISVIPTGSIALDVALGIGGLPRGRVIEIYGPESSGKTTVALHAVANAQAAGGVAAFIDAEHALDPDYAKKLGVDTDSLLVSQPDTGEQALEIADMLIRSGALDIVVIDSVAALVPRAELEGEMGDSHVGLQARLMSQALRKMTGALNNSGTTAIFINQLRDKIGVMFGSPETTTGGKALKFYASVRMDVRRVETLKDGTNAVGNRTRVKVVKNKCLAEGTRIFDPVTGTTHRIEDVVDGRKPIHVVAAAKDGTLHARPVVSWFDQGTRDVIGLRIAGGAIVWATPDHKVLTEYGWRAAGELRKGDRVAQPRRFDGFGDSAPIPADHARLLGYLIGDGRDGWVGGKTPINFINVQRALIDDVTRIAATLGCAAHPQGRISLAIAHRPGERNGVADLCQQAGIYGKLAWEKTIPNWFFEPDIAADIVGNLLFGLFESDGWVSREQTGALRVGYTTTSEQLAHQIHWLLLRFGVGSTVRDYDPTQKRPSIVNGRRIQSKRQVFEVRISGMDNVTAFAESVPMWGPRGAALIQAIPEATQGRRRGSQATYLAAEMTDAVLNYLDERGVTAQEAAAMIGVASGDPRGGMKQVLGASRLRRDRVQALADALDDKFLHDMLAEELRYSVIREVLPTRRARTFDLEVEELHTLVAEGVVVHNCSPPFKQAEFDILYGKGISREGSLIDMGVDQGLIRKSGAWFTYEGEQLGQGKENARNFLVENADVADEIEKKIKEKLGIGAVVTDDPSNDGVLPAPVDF
Arbovirus anti repeat – also measured in Arbovirus anti; calls as there; inhibition, %; measured here: 10K subset replicate screen; many hits read low in the repeat;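 first of two repeat runs on a subset; 0% = infected and 100% = uninfected wells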
An asterisk follows results filed as active; ? = inconclusive; nt = not tested or not shown.

SMILES	Mtb growth	YopH PTP inh	Arbovirus anti	Mtb bLac sens	RecA splice inh	others
O=C(N/N=C/c1ccncc1)c1cccc(NC(=O)c2ccc(Cl)cc2)c1	4%	-23	5	11	-1.0
NC(=O)N/N=C/c1ccc(OCc2cccc(Cl)c2)cc1	4%	nt	-13	85	-1.4
N=C1C(c2ccc(Br)cc2)=C(O)C2CCc3ccccc3N12 (stereo unspecified)	0%	-25	-5	3	nt
Cc1occc1C(=O)N1CCN(c2ccc([N+](=O)[O-])cc2)CC1	nt	nt	nt	-2	2.8
NC(=O)C(=O)N/N=C1\CCc2ccccc21	-1%	nt	-2	-1	8.3
CCOC(=O)c1ccc(N2C(=O)CC(Nc3ccc(CCO)cc3)C2=O)cc1 (stereo unspecified)	0%	-2	8	-11	-6.6
O=c1c2ccccc2nc(/C=C/c2ccc(F)cc2)n1-c1ccccc1O	nt	nt	nt	0	-1.4
C=C(C)Cn1c(C(C)NC(=O)CCC)nc2ccccc21 (stereo unspecified)	-11%	-37	-5	-6	1.1	Arbovirus anti repeat=1
CC(=O)Nc1cccc(-c2csc(Nc3ccc(Cl)cn3)n2)c1	12%	nt	-11	50	12
FC(F)(F)c1ccc(Cl)c(N/N=C/c2ccc(N3CCOCC3)s2)c1	11%	-19	-1	90	-7.9
COc1cc(C2CC(=O)Nc3n[nH]c(-c4ccccc4)c32)cc(OC)c1OC (stereo unspecified)	-6%	nt	nt	-6	-0.2
O=c1c2ccccc2ncn1-c1ccccc1F	1%	nt	-2	-6	1.1
COc1ccc(-c2[nH]n(-c3ccc([N+](=O)[O-])cc3)c(=O)c2C=NCC2CCCO2)cc1 (stereo unspecified)	-3%	nt	-1	-2	nt
COc1ccc(-c2nc(CS(=O)(=O)CC(=O)NC3CCCCC3C)c(C)o2)cc1 (stereo unspecified)	nt	nt	nt	-2	0.2
Cc1c(Cl)cccc1Nc1nc(N)nc(CN2CCc3ccccc3C2)n1	?	3	-33	89	4.7
CC1=NC(=O)C(N=Nc2cccc(O)c2)N1c1ccccc1 (stereo unspecified)	1%	-36	0	-7	3.8
COc1ccc(C(=O)Nc2c(F)c(F)c(F)c(F)c2F)c(OC)c1	-14%	-44	-2	-6	-1.4	Arbovirus anti repeat=-4
O=C(Nc1ccccc1)[C@@H]1CC=C[C@@H]2CCN(Cc3ccccc3)C(=O)[C@@H]21	-3%	nt	nt	-5	0.2
COc1ccc(NC(=O)/C(N=Nc2cc(S(=O)(=O)Nc3ccc(OC)cc3)ccc2OC)=C(\C)O)cc1	7%	nt	-10	12	2.5
Cc1cccc(OCCCn2c(=O)oc3ccccc32)c1	48%	nt	0	24	3.9
COc1cc(OC)c2c(-c3ccccc3)cc(=O)oc2c1C(CCN1CCCCC1)c1ccc(N(C)C)cc1 (stereo unspecified)	8.8µM*	nt	nt	99	7.7
Cc1ccc2cc(C)c3nnc(SCC(=O)NCc4ccco4)n3c2c1	-7%	-35	0	-7	-2.9
COc1cc(NC(=O)C2=CC(c3ccco3)=NS(=O)(=O)N2C)cc(OC)c1OC	nt	nt	nt	-2	2.3
CCCc1ccc(-c2csc(NC(=O)Cc3cccs3)n2)cc1	-6%	-20	-6	12	-1.3
Cc1ccc(-n2c3c(c(=O)[nH]c2=O)C(NS(=O)(=O)c2ccc(Cl)cc2)(C(F)(F)F)C(=O)N3)cc1 (stereo unspecified)	?	-30	-3	2	-1.3
SMILES	Mtb growth	YopH PTP inh	Arbovirus anti	Mtb bLac sens	RecA splice inh	others
CCC1=Nc2cc(C(=O)NCC3CCCO3)ccc2Sc2ccc(Cl)cc21 (stereo unspecified)	-3%	nt	nt	-6	10.0
O=C(Cc1ccc(F)cc1)Nc1cccc(S(=O)(=O)N2CCCC2)c1	nt	nt	nt	-7	0.6
COc1ccc(C)cc1NC(=S)NNC(=O)c1ccccc1Cl	8%	-31	2	7	nt
CCOC(=O)C1CCCN(C(=O)c2ccc(Cl)c(S(=O)(=O)N3CCCCCC3)c2)C1 (stereo unspecified)	-6%	nt	1	-3	-0.8
FC(F)(F)c1cccc(Cn2cnc(NC(=S)NCCc3ccccc3)n2)c1	5%	nt	-1	11	-0.6
O=C(/C=C\c1ccccc1OC(=O)c1ccccc1F)c1cc2ccccc2o1	?	-5	-46	100	4.6
O=C1Nc2ccc(S(=O)(=O)N3CCCC3)c3ccc(S(=O)(=O)N4CCCC4)c1c23	-2%	-39	3	-2	-1.1
COc1ccccc1C/C(N)=N/OC(=O)COc1ccc2ccccc2c1	10%	4	0	4	14
O=C1CN(C(=O)CNCc2ccc(Cl)cc2)c2ccccc2N1	-2%	nt	nt	3	-0.5
O=C(N/C(=C/c1cccc([N+](=O)[O-])c1)C(=O)N1CCCCC1)c1ccco1	nt	nt	nt	-6	-1.2
O=C(NCCc1ccccc1Cl)C1CCC(=O)N(CC2CCCCC2)C1 (stereo unspecified)	nt	nt	nt	4	3.0
Cc1nnn(C23C[C@@H]4C[C@@H](CC(C(=O)N5CCN(c6ccccc6)CC5)(C4)C2)C3)n1	2%	nt	nt	-3	-0.2
COC(=O)c1cccc(NC(=O)CCCOc2ccccc2)c1	-3%	-49	0	46	nt
O=C(NNC(=S)NC(=O)c1cccnc1)c1ccc(F)cc1	-2%	nt	nt	88	-0.8
Cc1cc(OC(C)C(=O)NCc2ccccn2)c2c(C)c(C)c(=O)oc2c1 (stereo unspecified)	nt	nt	nt	2	-0.9
CSC1=NCCN1C(=O)COc1ccc2ccccc2c1	-3%	-34	2	4	4.6	Arbovirus anti repeat=-2
COCCNC(=O)CS(=O)(=O)Cc1nc(-c2ccc(C)cc2)oc1C	-6%	nt	1	7	0.6	Arbovirus anti repeat=4
Cc1ccc(N(Cc2ccco2)C(=O)c2ccc(N3CCCCC3)c([N+](=O)[O-])c2)cc1	12%	-3	-13	-2	3.6
O=C(NCc1ccccc1)c1ccc(CS(=O)(=O)Cc2ccccc2F)o1	-7%	nt	-4	-8	-2.7
COc1ccc(OC)c(S(=O)(=O)Nc2ccccc2C(=O)O)c1	-15%	6	7	-1	-2.0
Cc1ccccc1N1CCN(C2CCCN(C(=O)CCC(=O)N(C)C)C2)CC1 (stereo unspecified)	nt	nt	nt	3	6.3
CCC(=O)Nc1nn(CC(C)C)c2nc3ccc(C)cc3cc12	nt	nt	nt	6	-39
O=C(CN1C(=O)NC2NC(=O)NC21)N/N=C/c1ccccc1F (stereo unspecified)	-9%	nt	-6	-2	-5.3
CC(C)(C)C(=O)NC1CCN(S(C)(=O)=O)CC1	-3%	-2	2	3	nt
O=C1/C(=C\c2ccccc2)SC(=S)N1CCC(=O)N1CCCCC1CCO (stereo unspecified)	nt	nt	nt	6	21
SMILES	Mtb growth	YopH PTP inh	Arbovirus anti	Mtb bLac sens	RecA splice inh	others
Cc1cc(C)c(NC(=O)Cn2nc(-c3ccccc3)nc2-c2ccccc2)c(C)c1	2%	-15	-10	3	-1.0
CCOP(=O)(OCC)c1nc(-c2cccc3ccccc23)oc1N1CCOCC1	4%	-19	-11	2	-20
COc1ccc(C2c3c(ccc4ccccc34)Oc3ncn4nc(Cc5ccc(OC)c(OC)c5)nc4c32)cc1 (stereo unspecified)	-3%	-16	-9	3	0.4
CCC1c2ccc(C)n2CCN1C(=O)Nc1cc(Cl)ccc1OC (stereo unspecified)	-3%	-21	4	-4	1.3
CCCn1nnnc1SCC(=O)NCc1ccc2c(c1)OCO2	31%	-7	0	10	-0.5
Cc1nnc(SCC(=O)N(C(C)C)C(C)C)nc1C	2%	-20	0	-12	0.0
COC(=O)c1ccc(OCC(O)CN2C(=O)c3ccccc3C2=O)cc1 (stereo unspecified)	nt	nt	nt	-4	4.8
CN(C)C(CNC(=O)CCc1c[nH]c2ccccc12)c1ccccc1 (stereo unspecified)	nt	nt	nt	-1	0.1
Cc1ccccc1CN1CCC(n2nccc2NC(=O)c2cccnc2)CC1	nt	nt	nt	-3	2.5
CCc1cc(C(=O)Nc2cc(S(=O)(=O)N(CC)CC)ccc2N2CCN(C)CC2)sc1C	nt	nt	nt	3	3.5
Cc1cccc(NC(=O)CNC(=O)c2ccc(-n3cncn3)c([N+](=O)[O-])c2)c1C	nt	nt	nt	-6	-4.4
O=C(CS(=O)(=O)c1c[nH]c2ccccc12)NC1CCCCC1	0%	-50	2	7	0.0
Cc1nnc(NC(=O)CSc2cn(CCNC(=O)c3ccccc3)c3ccccc23)s1	-1%	-16	5	-4	0.6	Arbovirus anti repeat=-3
COc1ccc(CNC(=O)/C(C)=C\C(=O)O)cc1	nt	nt	-1	-8	-0.1
CN(C)CCOCCOc1ccc(Cl)c2ccccc12	-6%	nt	-29	17	-1.0
CCc1ccc(N=CC23c4ccccc4C(c4ccccc42)C2C(=O)N(c4ccc(OC)cc4)C(=O)C23)cc1 (stereo unspecified)	16%	-31	27	93	15
CC(=O)NC1=NN(C(C)=O)C(C)(c2cccs2)S1 (stereo unspecified)	-2%	-18	-6	-25	0.4
COc1ccc(N(CC(=O)Nc2cccc(N(C)S(C)(=O)=O)c2)S(=O)(=O)c2ccc(F)cc2)cc1	2%	nt	nt	-7	2.4
CCOc1cc(/C=N/NC(=O)C(N)=O)cc(Br)c1O	3%	nt	2	-3	-6.3
Cc1ccccc1NC(=O)c1ccc(Cl)c(NC(=O)c2cccnc2)c1	-4%	nt	-5	-3	0.8
Cc1ccccc1N(C(=O)c1ccco1)C(C(=O)NC1CCCC1)c1cccnc1 (stereo unspecified)	nt	nt	nt	0	-2.0
CC1(C)CC(=O)C(C(O)c2cccc([N+](=O)[O-])c2)C(C)(C)N1 (stereo unspecified)	nt	nt	nt	-15	3.0
O=C(CN(C(=O)CCC(=O)Nc1ccccn1)c1ccc(F)cc1)NCCc1ccccc1	nt	nt	nt	1	-3.6
COc1cccc(NC(=O)CSc2nnc(CNC(=O)c3ccccc3)n2C)c1	3%	-5	-5	2	-0.8
Cc1ccc(S(=O)(=O)N(C)C)cc1NC(=O)CN1C(=O)NC2(CCCc3ccccc32)C1=O (stereo unspecified)	-3%	-29	3	-5	-0.6

The closing four entries of the part above come first, to join the parts.
SMILES	Mtb growth	YopH PTP inh	Arbovirus anti	Mtb bLac sens	RecA splice inh	others
CC1(C)CC(=O)C(C(O)c2cccc([N+](=O)[O-])c2)C(C)(C)N1 (stereo unspecified)	nt	nt	nt	-15	3.0
O=C(CN(C(=O)CCC(=O)Nc1ccccn1)c1ccc(F)cc1)NCCc1ccccc1	nt	nt	nt	1	-3.6
COc1cccc(NC(=O)CSc2nnc(CNC(=O)c3ccccc3)n2C)c1	3%	-5	-5	2	-0.8
Cc1ccc(S(=O)(=O)N(C)C)cc1NC(=O)CN1C(=O)NC2(CCCc3ccccc32)C1=O (stereo unspecified)	-3%	-29	3	-5	-0.6
COCCn1c(C)cc(C(=O)CSc2ncn[nH]2)c1C	-4%	-13	9	-3	3.1
Cc1ccc(C)c(NC(=S)N(CCN(C)C)C(C)c2ccccn2)c1 (stereo unspecified)	-4%	nt	6	3	-4.7
CCCNC(=O)C(=O)Nc1ccc2c(c1)N(S(=O)(=O)c1cccs1)CCC2	nt	nt	nt	1	0.2
O=C(OCCN1CCCC1=O)c1cc(F)c(F)c(F)c1F	1%	-9	5	3	5.2
CCC(Sc1nc2ccccc2o1)C(=O)O (stereo unspecified)	6%	nt	5	1	4.5
O=C(COCc1cc(-c2ccc3c(c2)OCO3)on1)N1CCN(c2ccccc2)CC1	nt	nt	nt	?	-1.8
O=C(CCN1C(=O)/C(=C/c2cccs2)SC1=S)Nc1cccc(C(=O)O)c1	nt	nt	nt	0	18
COc1ccc(-c2csc(-c3cc4ccccc4oc3=N)n2)cc1	10%	-24	3	-2	-1.8
CCOC(=O)N1CCN(c2cc(C)c(C(C)=O)cc2F)CC1	2%	-15	1	1	0.4
Cc1cccc(N(CC(=O)N2CCCCCC2)S(C)(=O)=O)c1C	nt	nt	nt	-4	2.5
COc1ccccc1C(=O)Nc1ccc(Oc2nnc(-c3ccc(C)cc3)c3ccccc23)cc1	13%	-29	-11	12	2.2
Cc1ccc(OCC(=O)N/N=C\c2cn(Cc3ccccc3)c3ccccc23)cc1C	nt	-25	0	0	-1.9
O=C(NNC(=O)C(Cl)Cl)c1cnn(-c2ccccc2)c1C(F)(F)F	-7%	nt	nt	10	-0.2
Cc1ccc(-n2cccc2C(=S)N=P(N(C)C)(N(C)C)N(C)C)cc1	-3%	-15	13	-5	8.0
CC(C)(C)Sc1ccc(N)nc1	-2%	-21	4	10	8.0
COc1cc2c(C(=O)NCCCN3CCN(c4cccc(Cl)c4)CC3)cn(C)c(=O)c2cc1OC	2%	-108	7	11	-4.6
COc1cccc(NC(=O)CN(C)C(=O)c2ccc3c(c2)S(=O)(=O)N=C2CCCCCN23)c1	nt	nt	nt	-12	-2.9
Cc1ccc(SCC(=O)NCCCc2ccccc2)cc1	6%	nt	-9	-10	2.9

Compound activity as filed in PubChem BioAssay.

This is a subset, so the mix of outcomes need not match the whole.
